H5N1 antiviral = antiviral screen in MDCK cells, H5N1 avian flu. cytopathic effect, luminescence, 72 h; hits give high values; no value below 0 was filed and about half of the inactive calls have no number; reference of the scale not given here. inhibition, % at 50 µM. 0.07% of 96,000 active; in the data active = inhibition above about 25%
The depositor's hits bear a star; i = inactive. A portion of the library. The share of hits here may be higher or lower than overall.

item	structure	H5N1 antiviral
1	[O-][N+]12CC[N+]([O-])(CC1)c1ccccc12	0.2
2	Cc1nn(CC(=O)Nc2ccccc2)c(=O)c2ccccc12	0.3
3	CN(C)S(=O)(=O)c1ccc(C(=O)OCC(=O)c2ccc(OC(F)F)cc2OC(F)F)cc1	0.4
4	Cn1nc(-c2ccc(Cl)cc2)c2cc(C(=O)NCCCN3CCOCC3)sc21	i
5	Cc1ccc2cc(CN(CC(C)C)C(=O)C3CCCO3)c(=O)[nH]c2c1 (stereo unspecified)	0.3
6	CCOc1ccc(C2C(C#N)=C(N)Oc3cc(C)n(Cc4ccco4)c(=O)c32)cc1OC (stereo unspecified)	i
7	CCC(=O)Nc1nc(N)n(-c2ccccc2)n1	i
8	COc1ccc(C(=O)NNC(=O)c2cnccn2)cc1[N+](=O)[O-]	0.7
9	COc1cc(C2NC(=O)NC(C)=C2C(=O)OC(C)(C)C)ccc1OCC(N)=O (stereo unspecified)	0.7
10	c1nnc(NC2=NCCCCC2)s1	0.1
11	COc1cccc(CNc2ccc3c(c2)CCC3)c1	i
12	Cc1cc(C)c2cc3c(ccn3C3OC[C@H](O)[C@H](O)[C@H]3O)cc2n1 (stereo partly specified)	i
13	COC(=O)c1ccc(/C=N/NC(=O)CC(=O)NCC(C)C)cc1	0.4
14	Nc1ccc(O)cc1C(=O)OCC(=O)C12CC3CC(CC(C3)C1)C2	i
15	O=C(CSc1nnc(C2CC2)n1-c1ccccc1)Nc1ccc(N2CCOCC2)cc1	i

The results go on.
item	structure	H5N1 antiviral
16	Cc1ccc(-n2nnnc2SCn2nnc3ccccc3c2=O)c(C)c1	i
17	Cc1ccc(F)cc1NC(=O)C1CCN(c2cnccn2)CC1	i
18	Cc1nn(C)cc1CN(C)C(=O)c1cc2nc(-c3ccco3)cc(C(F)(F)F)n2n1	i
19	COCCCNCCOc1cc(C(C)C)ccc1C	0.1
20	COc1cccc(Nc2cc(C)nc3ccccc23)c1	i
21	CC(=O)Oc1ccc(-c2ccc(C(=O)O)cc2)cc1	i
22	O=C(NCCN1CCOCC1)c1ccc([N+](=O)[O-])cc1[N+](=O)[O-]	1.1
23	Cc1ccc(Cl)cc1N1CCN(C(=O)c2cc3c(=O)n(C)c4ccccc4c3n2C)CC1	6.8
24	CCOc1ccc(-c2cc(N3C(=O)Nc4ccccc4N3O)on2)cc1	i
25	COC(=O)CCCCCNc1ccc(C(=O)OC)cc1N	1.0
26	CC(NC(=O)c1cccs1)c1ccc2c(c1)OCO2 (stereo unspecified)	1.6
27	O=C(Nc1ccccc1Cl)N1CCN(c2ccc3nnc(-c4ccc(F)cc4)n3n2)CC1	3.4
28	CCN(CC)S(=O)(=O)c1ccc(C(=O)N2CCN=C2SC)cc1	2.5
29	Cc1csc(NC(=O)C2CCCN(S(=O)(=O)c3cnc[nH]3)C2)n1 (stereo unspecified)	i
30	CC(C)C(NC(=O)CNC(=O)OC(C)(C)C)C(=O)NCc1ccccc1 (stereo unspecified)	0.1

An excerpt of these results, with each value named:
19: COCCCNCCOc1cc(C(C)C)ccc1C
  H5N1 antiviral: 0.1

20: COc1cccc(Nc2cc(C)nc3ccccc23)c1
  H5N1 antiviral: i

21: CC(=O)Oc1ccc(-c2ccc(C(=O)O)cc2)cc1
  H5N1 antiviral: i

22: O=C(NCCN1CCOCC1)c1ccc([N+](=O)[O-])cc1[N+](=O)[O-]
  H5N1 antiviral: 1.1

Further records follow:
item	structure	H5N1 antiviral
31	COC(=O)C1=C(C)Nc2ncnn2C1c1cccnc1 (stereo unspecified)	0.1
32	O=c1c2ccccc2c(C=Nc2ccc(Cl)cn2)c(O)n1-c1cc(Cl)ccc1N1CCOCC1	0.2
33	Cc1ccc(C2(C)NC(=O)N(CC(=O)Nc3cc(C)on3)C2=O)cc1 (stereo unspecified)	i
34	O=C(COc1ccc(Cl)cc1Cl)NCCSc1ccc(Cl)cc1	1.0
35	COc1ccc(NC(=O)OCC(C)C)cc1OC	i
36	CCC(=O)Nc1cc(C(=O)NCC2CCCN2CC)c(OC)cc1N(C)C (stereo unspecified)	1.1
37	CC(C)COC(=O)Cc1c(O)c2ccccc2[nH]c1=O	i
38	Cc1ccccc1OCCOc1cccc(/C=N/NC(=O)Cc2nnc(N)s2)c1	i
39	O=C(/C=C/N1CCOCC1)c1coc2ccccc12	i
40	CCOc1ccc(S(=O)(=O)Nc2cc(C)ccn2)c2ccccc12	1.2
41	CCc1c(C)sc(NC(=O)c2cc(C)on2)c1C#N	0.6
42	c1ccc(-c2cc3c(-n4cccc4)ncnc3o2)cc1	i
43	Cc1ccc(NC(=O)c2ccco2)cc1NC(=O)CSc1nnc(-c2cccs2)n1C	1.5
44	CC(C)(C)C(=O)Nc1cccc(-c2nc3ccccc3c(=O)o2)c1	i
45	CCc1nnc(NC(=O)CSc2nnc(Cc3ccc(OC)cc3)o2)s1	i

Following part
item	structure	H5N1 antiviral
46	Cn1c(SCC(=O)N2CCOCC2)nnc1-c1cccc(NC(=O)c2ccccc2)c1	i
47	Cc1ccc(-c2nc3ccccc3s2)cc1NC(=S)NC(=O)c1ccccc1	i
48	CN1CCN(C(=O)/C(=C\c2ccccc2)c2ccccc2)CC1	1.3
49	COc1ccc(S(=O)(=O)NCCSCc2cccs2)cc1	0.5
50	COc1ccc(C2=C(C=Nc3c(C)n(C)n(-c4ccccc4)c3=O)C(c3ccccc3C)c3ccccc3O2)cc1OC (stereo unspecified)	i
51	COC(=O)c1sc2ccccc2c1-n1cccc1C(=O)C(=O)Nc1ccc(Cl)cc1	i
52	OC1CCCN(Cc2ccc3ccc4cccc5ccc2c3c45)C1 (stereo unspecified)	i
53	CCC(C)NS(=O)(=O)c1ccc(OCC(=O)NCc2ccc3c(c2)OCO3)cc1 (stereo unspecified)	i
54	COc1ccc(C(=O)NCc2cn3cccc(C)c3n2)cc1OC	0.9
55	CCCC(=O)Nc1c(-c2cccs2)c(=O)c2ccccc2n1CC	i
56	O=C(c1ccc2nc(N3CCCCC3)sc2c1)N1CCN(Cc2ccc3c(c2)OCO3)CC1	i
57	COC(=O)c1sc2nc(N3CCCCC3)c3c(c2c1N)CCCC3	4.2
58	Cc1ccc(-n2c(SCC(=O)NC3CCCCC3)nc3c(c2=O)SCC3)cc1	i
59	O=C(O)CC(Cn1cnnn1)c1ccccc1 (stereo unspecified)	0.3
60	C=CCN(C(=O)Cn1c(C(=O)OC)cc2oc(C)cc21)c1ccccc1	1.3

(listing goes on)
item	structure	H5N1 antiviral
61	Cc1ccnc(SCC(=O)n2c3c(c4ccccc42)CC(C)CC3)n1 (stereo unspecified)	0.8
62	S=C(Nc1ccc(Cl)cc1)c1nc2ccccc2s1	i
63	CCOc1cc(C(=O)NC)cc(OCC)c1OCC	1.3
64	CC1CCc2cc(F)ccc2N1C(=O)c1cnc2sccn2c1=O (stereo unspecified)	0.1
65	CC(=O)c1cccc(S(=O)(=O)N2CCC(n3nnc4cc(F)ccc43)CC2)c1	1.6
66	Cc1cc(-c2ccc(F)cc2)nc2cc(C(N)=O)nn12	1.6
67	CCOC(=O)N1CCN(C2CC(=O)N(c3ccc(F)cc3)C2=O)CC1 (stereo unspecified)	i
68	CC(=O)Nc1ccc(S(=O)(=O)N[C@@H](C)C(=O)Nc2ccc(N3CCOCC3)cc2)cc1	0.0
69	Cc1noc(/C=C/N(C)C)c1S(=O)(=O)N1CCCC(C(=O)NC(C)c2ccccc2)C1 (stereo unspecified)	i
70	CC(=O)Oc1ccc(-c2cccc(C(=O)NCC(=O)O)c2)cc1	i
71	C=CCc1cc(/C=N/n2cnnc2)cc(OCC)c1O	0.8
72	O=C(O)CC(C(=O)O)c1cn(Cc2ccccc2)c2ccccc12 (stereo unspecified)	0.3
73	O=C(CN1C(=O)C2CC=CCC2C1=O)NCc1ccc2c(c1)OCO2 (stereo unspecified)	i
74	Cc1ccc(-c2ccc(=O)n(CC(=O)N3CCN(c4cccc(C)c4)C(C)C3)n2)cc1 (stereo unspecified)	2.8
75	Cc1ccc(-n2nc(C)c3cc(C(=O)O)sc32)cc1	0.3

Exported with each value named: entries from further up
5) Cc1ccc2cc(CN(CC(C)C)C(=O)C3CCCO3)c(=O)[nH]c2c1 (stereo unspecified)
  H5N1 antiviral: 0.3
67) CCOC(=O)N1CCN(C2CC(=O)N(c3ccc(F)cc3)C2=O)CC1 (stereo unspecified)
  H5N1 antiviral: i
37) CC(C)COC(=O)Cc1c(O)c2ccccc2[nH]c1=O
  H5N1 antiviral: i
47) Cc1ccc(-c2nc3ccccc3s2)cc1NC(=S)NC(=O)c1ccccc1
  H5N1 antiviral: i

(more compounds)
item	structure	H5N1 antiviral
76	COc1ccc(-n2nnnc2SCC(N)=O)cc1	i
77	Nc1c(C(=O)Nc2ccccc2F)sc2nc(-c3ccco3)ccc12	i
78	CC(NC(=O)c1ccccc1)c1nc2ccccc2n1Cc1ccccc1F (stereo unspecified)	i
79	CC12CN3CC(C)(CN(C1)C3c1ccc(Br)cc1O)C2 (stereo unspecified)	i
80	O=P(COCCOCP(=O)(c1ccccc1)c1ccccc1)(c1ccccc1)c1ccccc1	0.3
81	O=C(O)C1C2C=CC(C2)C1C(=O)Nc1nccs1 (stereo unspecified)	i
82	Cc1cc(C)nc(SCCC(=O)N2CCOCC2)n1	i
83	CCCCCOc1ccc(N2C(=O)CC(N(O)c3ccccc3)C2=O)cc1 (stereo unspecified)	i
84	CCOC(=O)C(C)Oc1cccc2c(=O)n(CC(=O)N3CCN(C(=O)OCC)CC3)ccc12 (stereo unspecified)	0.3
85	Cc1nc(-c2cccc(NC(=O)c3cc4cc(Br)ccc4oc3=O)c2)cs1	0.1
86	CCS(=O)(=O)N1CCCC(C(=O)NCCc2ccccc2)C1 (stereo unspecified)	0.5
87	Cc1sc(=NC(=O)c2ccco2)n(C)c1-c1ccc(F)cc1	2.3
88	COc1ccc(N2CCN(c3ccc(NC(=O)C4CCCCC4)cc3C#N)CC2)cc1	i
89	COc1ccc(S(=O)(=O)Nc2ccccc2C(=O)NC(C)C)cc1OC	i
90	Cn1c(C(=O)OC(C(=O)NC2CCCC2)c2cccnc2)cc2sccc21 (stereo unspecified)	i

Continuation:
item	structure	H5N1 antiviral
91	COCCNC(=O)CC(c1ccccc1)c1ccccc1	0.2
92	CCN(C(=O)c1cc2cc(OC)ccc2oc1=O)c1ccccc1	0.5
93	O=C(O)CSc1nc2ccccc2o1	0.9
94	Cc1cc(=O)n2nc(N3CCC(C(=O)N4CCN(C)CC4)CC3)sc2n1	0.2
95	O=C(Cn1nnc(-c2ccccc2Cl)n1)NCc1ccc2c(c1)OCO2	i
96	Brc1ccc(CN2CCNCC2)s1	i
97	COc1ccc(N(CC(=O)NCc2ccccc2OC)S(=O)(=O)c2c(C)nn(C)c2C)cc1	1.2
98	CNC(=O)c1c(NC(NC(=O)c2ccco2)C(=O)c2ccc(Cl)cc2)sc2c1CCCC2 (stereo unspecified)	i
99	CONC(=O)C1CCN(C(=O)OCc2ccccc2)CC1	0.7
100	Cc1cc(C)n(-c2nc3nonc3nc2-n2nc(C)cc2C)n1	0.1
101	COC(=O)C1=C(C)N(C)C(=O)NC1c1cc(Cl)cc(Cl)c1OC (stereo unspecified)	0.7
102	COC(=O)C1=C(CN2CCc3ccccc32)NC(=O)NC1c1cc(C)ccc1C (stereo unspecified)	i
103	Cc1ccc(NC(=O)CCSc2nnc3ccccn23)cc1	i
104	Cc1ccc(NC(=O)c2cc3c(s2)CCC3)cc1S(=O)(=O)N1CCOCC1	1.3
105	O=C1C(Cl)=C(NCCCN2CCOCC2)C(=O)N1CCc1ccccc1	0.8

The list goes on:
item	structure	H5N1 antiviral
106	CCN(CC)c1ccc(/C=N/n2c(C)cc(C)cc2=O)cc1	0.2
107	Cc1ccc(S(=O)(=O)Nc2ccc(N3CCOCC3)cc2)cc1	i
108	c1ccc(-c2cnnc(SCc3cn4cccnc4n3)n2)cc1	3.0
109	c1cncc(CSc2nnc(-c3cccnc3)n2Cc2ccco2)c1	1.2
110	O=C(CCCCCn1c(=S)[nH]c2ccccc2c1=O)N1CCC2(CC1)OCCO2	i
111	CCCCOC(=O)N1CCOCCOCCN(C(=O)OCCCC)CCOCCOCC1	i
112	CO/N=C/c1ccc(Sc2ccccc2N)c([N+](=O)[O-])c1	0.8
113	COC(=O)C1=C(N)Oc2cc(C)[nH]c(=O)c2C1c1ccncc1 (stereo unspecified)	0.1
114	CCOC(=O)c1ccccc1NC(=O)CC(C)CC(=O)O (stereo unspecified)	i
115	O=C(OCC#CCSc1nnc(-c2ccc(Br)cc2)o1)c1ccco1	0.7
116	CCS(=O)(=O)Nc1c(C(=O)O)[nH]c2ccccc12	1.3
117	Oc1ccc(C(=S)N2CCCCCC2)cc1	i
118	Cc1ccc(S(=O)(=O)Cn2nnnc2C(c2ccc(F)cc2)N2CCCCC2)cc1 (stereo unspecified)	0.5
119	CCc1ccc2nc(NC(=O)c3ccc4c(=O)[nH]c(CN5CCOCC5)nc4c3)sc2c1	1.7
120	COc1ccc(-c2nc(CCNC(=O)c3ccco3)cs2)cc1OC	i

Later entries:
item	structure	H5N1 antiviral
121	Cc1ccc(CNCc2cccnc2)cc1	0.7
122	O=[n+]1c2c(n([O-])c3cc(Cl)ccc31)CCCC2	0.1
123	CC(C)c1ccc(-c2nc(N3CCOCC3)[nH]c(=O)c2C#N)cc1	i
124	Cc1cccc(NC(=O)CN2NS(=O)(=O)c3ccccc3C2=O)c1	0.7
125	CN(C)Cc1c(O)c(Cl)cc2c3c(c(=O)oc12)CCCC3	i
126	CC(C)N(Cc1nc(-c2ccccc2)no1)C(=O)COc1ccccc1	i
127	Clc1ccc(OCCN2CCCCC2)c(Cl)c1	i
128	Cn1cccc1Cc1nnc(SCC(=O)Nc2ccc3c(c2)OCO3)n1-c1ccc(F)cc1	i
129	O=S(=O)(c1cccc(-c2nnco2)c1)N1CCCC1	i
130	CCCNS(=O)(=O)c1cc(Br)cc2c1N(C(=O)CC)CC2	i
131	Cc1[nH]c2ccccc2c1/C=C/c1cc[n+](C)cc1	i
132	O=C(c1ccco1)N1CCN(S(=O)(=O)c2ccc(C3CCCCC3)cc2)CC1	i
133	Cc1nc2ccccc2c2oc(C(=O)N3CCC(N4CCCCC4)CC3)cc12	2.9
134	CCN1CCN(C(=O)/C=C\C(=O)O)CC1	i

Bioassay records (PubChem)
